High-throughput results: PubChem, several laboratories
Mtb hypoxia rep: reduces hypoxia-regulated biosensor signal in M. tuberculosis | M. tuberculosis hypoxia-regulated fluorescent reporter, fluorescence | fluorescence inhibition, % (no concentration beside the values) | actives 0.1% (n = 300,000) | AID 1159583;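 active = 35 to 45% if threefold the growth effect, above 45% if 1.5-fold the growth effect; inactive = the rest, general growth blockers included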;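 also: wells of about 50 µL received 100 nL stock; 0% = vehicle wells and 100% = reference inhibitor wells; whole bacteria with a GFP reporter of the hypoxia response; strong numbers were not always called active; many hits fall short of the cut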
RN4220 kill: kills Staphylococcus aureus RN4220. S. aureus RN4220 growth, OD600, 16 h. inhibition, % (test concentration not listed). actives 0.33% (n = 330,000);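 active = z-score of -3 or lower and OD600 up to 0.18 on both plates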;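 also: plate controls were untreated cells for no effect and reference antibiotic for full effect; stock transfer was 100 nL into about 80 µL; one replicate is shown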
Autofluor counter: counter-screen for toxin protease inhibitors: compound fluorescence | compound autofluorescence counterscreen, microsphere flow cytometry; hits give high values | fluorescence intensity (no concentration beside the values) | actives 3.1% (n = 360,000) | AID 624483;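 active = at least 3 SD above the mean of all compounds, about 16000 in these data; inconclusive = too few beads counted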;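 also: 100 nL of 1 mM stock went into each well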
BJeLR lethal: BJeLR cell viability loss | inhibition, % (concentration not given with the values) | BJeLR (HRASV12) viability, CellTiter-Glo ATP luminescence, 48 h; reference of the scale not given here | actives 0.17% (n = 300,000);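 active = replicate mean above 50%; inconclusive = above 50% but judged a plate artefact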;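 also: 50 nL library stock added to about 25 µL; numbers are from one replicate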
ugtP null kill: growth inhibition of S. aureus ugtP deletion strain. growth inhibition, % (no concentration beside the values). S. aureus RN4220 ugtP deletion, OD600 growth, 16 h; some inactives read as strong as hits. actives 0.54% (n = 330,000);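 active = z-score under -3 and OD600 up to 0.15 on both plates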;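 also: plate controls were untreated wells for no effect and antibiotic for full effect; wells of about 80 µL received 100 nL stock; the first replicate is given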
PrP 5UTR inh: inhibition of PrP 5' UTR reporter expression; inhibition, % (test concentration not listed); cell-based PrP 5' UTR mRNA reporter, plate reader; actives 0.35% (n = 340,000); AID 488862;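 active = every replicate at 50% or more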;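 also: 0 = median of the neutral control wells; tested in H4 reporter cells; numbers are from one replicate; inactives centre near -14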
Mtb hypoxia rep growth: second read-out of Mtb hypoxia rep, no call of its own (marks repeat the call); growth inhibition, %; measured here: M. tuberculosis growth (absorbance);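 0% = vehicle and 100% = reference antibiotic; read after six days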
An asterisk follows results filed as active; ? = inconclusive; / = no result given. Hits appear at their usual frequency; about 4.1% have a hit in one of these screens.

SMILES | Mtb hypoxia rep | Mtb hypoxia rep growth | RN4220 kill | Autofluor counter | BJeLR lethal | ugtP null kill | PrP 5UTR inh
Cc1cc(NS(=O)(=O)c2ccc(NC(=S)NC(=O)c3cccc(S(=O)(=O)N(C)C)c3)cc2)no1 | 21.6 | 26.5 | 6.8 | 4687 | 8.4 | 3.7 | -11.1
CN1CCN(c2nc(-c3ccc(C(C)(C)C)cc3)nc3ccccc23)CC1 | 21.8 | 9.6 | 2.3 | 3706 | -4.2 | 12.7 | -4.8
c1ccc(-c2nn3c(Cn4nnc5ccccc54)nnc3s2)cc1 | 7.0 | 8.4 | 12.6 | 6963 | 8.2 | -3.5 | -8.9
O=c1c2ccccc2nnn1COc1ccc(F)cc1Cl | 6.3 | 3.9 | 8.2 | 4482 | 10.0 | 6.2 | -41.7
O=C(NCCNc1ccc([N+](=O)[O-])cc1)c1cccs1 | 16.8 | 3.7 | -0.6 | 3994 | -0.5 | -2.9 | -2.3
O=C(NC1CCCC1)c1ncn[nH]1 | 2.7 | 3.8 | 3.8 | 2359 | 0.5 | 12.8 | 2.0
CCOC(=O)c1cccc(NC(=O)COc2ccc([N+](=O)[O-])cc2)c1 | -2.2 | -0.1 | -5.0 | 7091 | -11.2 | 10.7 | -4.5
CCCN(CCC)CCCNC(=O)CCNS(=O)(=O)c1ccc(Br)cc1 | 9.8 | 2.0 | 1.3 | 2202 | 9.1 | 4.5 | -121.8
CCOC(=O)C1=C(COC(=O)c2ccccc2[N+](=O)[O-])NC(=O)NC1C (stereo not given) | 4.4 | 5.9 | 2.3 | 5626 | -0.4 | 11.2 | -10.5
CC(C)Oc1ccc(S(=O)(=O)N2CCOCC2)cc1NC(=O)C1=COCCO1 | / | / | / | 6201 | -4.5 | / | -12.4
CCOc1ccc(S(=O)(=O)N2CCCCC2)cc1NC(=O)C1CCC1 | 6.9 | 9.3 | 1.8 | 5112 | 5.2 | 8.1 | -11.5
Cc1cc(O)c(C(C[N+](=O)[O-])c2ccc(Cl)cc2)c(=O)o1 (stereo not given) | / | / | -2.5 | 4363 | -7.4 | -2.0 | -6.0
COc1cc(/C=C/C(=O)OCC(=O)N(C)Cc2ccccc2)cc(OC)c1OC | 7.3 | 0.6 | 1.1 | 3990 | / | 4.8 | -6.0
O=C(COC(=O)Cc1ccsc1)NC(c1ccccc1)c1ccccc1 | 9.4 | 5.2 | 7.4 | 2503 | -5.5 | 7.8 | -25.8
Cc1ccc(NC(=O)COC(=O)c2ccc(OC(F)F)cc2)cc1S(=O)(=O)N1CCCCC1 | 9.8 | 6.2 | -0.9 | 2928 | / | 0.7 | -10.6
Nc1nc2ccccc2cc1-c1cccs1 | -5.0 | 0.4 | 7.6 | 3848 | 4.6 | 6.7 | -40.9
Cc1ccc[n+](C(C)C(=O)Nc2ccc([N+](=O)[O-])cc2C)c1 (stereo not given) | 7.6 | 5.2 | -4.0 | 4097 | 1.3 | 6.0 | -19.0
C=CCN(c1ccccc1Cl)S(=O)(=O)c1cccc(C(=O)OCC(=O)N(C)C2CCS(=O)(=O)C2)c1 (stereo not given) | 11.0 | 5.1 | 11.2 | 1989 | -4.1 | 1.6 | -15.2
Cc1ccc(C)n1Cc1ccc(C(=O)O)cc1 | 7.8 | 1.4 | 6.4 | 24761* | / | -9.2 | -16.5
Cc1ccn2c(=O)nc(SCC(=O)NCc3ccc(F)cc3)nc2c1 | -13.5 | -5.9 | -4.5 | 16287* | 4.7 | -10.4 | 1.3
COc1ccc(-c2n[nH]c(=S)o2)c(OC)c1 | / | / | 0.7 | 2356 | -6.6 | 35.2 | -8.3
CC1CCC/C(=N\NS(=O)(=O)c2ccccc2)C1 (stereo not given) | / | / | / | 4702 | -5.1 | / | -22.6
Cc1ccc(NC(=O)c2cncc(Br)c2)cc1S(=O)(=O)N(C)C | 9.0 | 1.4 | 6.1 | 2514 | -4.7 | 2.2 | -40.7
COc1ccc(N(CC(=O)N2CCN(Cc3ccccc3)CC2)S(C)(=O)=O)cc1Cl | -6.8 | -10.4 | -3.7 | 3239 | -7.7 | 1.9 | -5.9
C/C(=N\Nc1ccc(C(F)(F)F)cc1[N+](=O)[O-])C1CC1 | / | / | / | 2443 | 6.0 | / | -1.4
COc1cc([N+](=O)[O-])ccc1NC(=O)Cc1ccc(C)cc1 | 2.9 | 10.4 | 6.1 | 2240 | 9.7 | 8.0 | -13.7
CCC1=NN(C(=O)COc2ccccc2)C(O)(c2ccc(Br)cc2)C1 (stereo not given) | 1.8 | 3.2 | 1.1 | 2668 | -4.2 | 3.2 | -16.3
CN(Cc1ccccc1)C(=S)NC(=O)c1ccccc1 | 2.1 | 10.8 | 4.5 | 4132 | 5.8 | 3.2 | -28.5
COc1ccc(Cl)cc1/C=C1/C(=O)ON=C1C | -1.2 | 0.8 | -0.7 | 4241 | -3.0 | 2.9 | -18.0
Cn1c(=NC(=O)c2ccco2)sc2cccc(F)c21 | 16.1 | 12.7 | -8.5 | 5946 | -8.8 | -6.5 | 20.3

Compound profiles (already shown).
`CC(C)Oc1ccc(S(=O)(=O)N2CCOCC2)cc1NC(=O)C1=COCCO1` is listed with Mtb hypoxia rep = /; Mtb hypoxia rep growth = /; RN4220 kill = /; Autofluor counter = 6201; BJeLR lethal = -4.5; ugtP null kill = /; PrP 5UTR inh = -12.4
`Cn1c(=NC(=O)c2ccco2)sc2cccc(F)c21` is listed with Mtb hypoxia rep = 16.1; Mtb hypoxia rep growth = 12.7; RN4220 kill = -8.5; Autofluor counter = 5946; BJeLR lethal = -8.8; ugtP null kill = -6.5; PrP 5UTR inh = 20.3
`Cc1cc(NS(=O)(=O)c2ccc(NC(=S)NC(=O)c3cccc(S(=O)(=O)N(C)C)c3)cc2)no1` is listed with Mtb hypoxia rep = 21.6; Mtb hypoxia rep growth = 26.5; RN4220 kill = 6.8; Autofluor counter = 4687; BJeLR lethal = 8.4; ugtP null kill = 3.7; PrP 5UTR inh = -11.1

The listing continues.
SMILES | Mtb hypoxia rep | Mtb hypoxia rep growth | RN4220 kill | Autofluor counter | BJeLR lethal | ugtP null kill | PrP 5UTR inh
C#CCOCCOCCOCCNc1nc(N2CCN(C(=O)C(CCCCN)n3cc(CN)nn3)CC2)nc(N2CCN(C(=O)C(C(C)O)n3cc(C(N)CCCCN)nn3)CC2)n1 (stereo not given) | 3.7 | 3.5 | 5.9 | / | / | 2.2 | /
CC(=O)Nc1sc(C)c(C)c1C(=O)OCC(=O)NCc1ccccc1 | 11.0 | 6.1 | 3.3 | ? | / | -0.7 | 0.7
O=C(c1ccc(Cl)cc1)c1cn[nH]c1-c1ccccc1O | 15.5 | 2.8 | 9.8 | 5418 | 3.0 | 1.8 | -21.8
O=c1c(Cc2ccccc2)c(O)nc2n1CCCS2 | / | / | / | 3054 | -1.3 | / | -6.5
CCOc1ccc(-c2nnc(SCc3nnc(-c4ccccc4)o3)n2-c2ccccc2F)cc1 | / | / | -0.1 | 5183 | 1.3 | -13.5 | -26.9
NC(=O)CC(NC(=O)Cc1cccc2ccccc12)c1ccc(NCC2CC2)c([N+](=O)[O-])c1 (stereo not given) | 10.6 | -1.5 | 5.8 | 3389 | -5.9 | 1.6 | -18.7
CCC(=O)c1c[nH]c(C(=O)N2CCOCC2)c1 | -0.7 | -7.3 | -1.6 | 6468 | 1.9 | 4.5 | -1.6
Cc1cc(-c2ccc(C)c(S(=O)(=O)NCCCN(Cc3ccccc3)C(C)C)c2)on1 | 1.8 | -3.2 | 2.6 | 4449 | 4.6 | 15.6 | -11.4
Cc1nnc(NN=Cc2cccc(OCc3ccc(Cl)c(Cl)c3)c2)n1N | 8.3 | 1.0 | 25.6 | / | / | -5.5 | /
Fc1ccc(Nc2c3c(nc4ccccc24)CCC3)cc1 | 3.6 | 8.5 | 1.9 | 4021 | 3.6 | 8.5 | -25.4
O=C(C1=C[C@@H](c2coc3ccccc3c2=O)C[C@@H](OCc2ccc(CO)cc2)O1)N1CCCCCCC1 | 2.3 | -4.2 | 0.1 | 3058 | -1.7 | -2.4 | -1.6
CCN1C(=O)[C@H]2[C@@H](c3ccc(-c4ccccc4)cc3)N3CCCC[C@@]3(C(=O)OC)[C@H]2C1=O | / | / | / | 4213 | 5.3 | / | -26.6
O=C(/C=C/c1ccc2c(c1)OCO2)Nc1ccc(Cl)cn1 | 6.8 | 5.6 | 1.1 | 4012 | 1.5 | 1.8 | -79.8
Cc1nn(-c2ccc(Cl)cc2)c(Cl)c1/C=N/NC(=O)c1ccc(NS(=O)(=O)c2cccs2)cc1 | / | / | / | 5367 | 12.2 | / | -15.0
Cn1cc(CCNC(=O)C2CCC(=O)N(CCc3ccc(Cl)cc3)C2)cn1 (stereo not given) | 4.5 | -6.5 | -2.3 | 5086 | -1.4 | 2.9 | -10.0
COc1ccc(C)cc1NC(=O)CCN1CCN(c2ccccc2)CC1 | -4.7 | -10.6 | 8.0 | 4133 | 3.8 | 6.6 | -7.6
COc1ccc(NC(C)=O)cc1NC(=O)CN1CCN(S(=O)(=O)c2ccc(C(C)C)cc2)CC1 | / | / | 6.3 | 2221 | 5.6 | 13.3 | -1.8
CCC(C)C(=O)N1CCc2cc(-c3csc(N)n3)ccc21 (stereo not given) | / | / | -0.4 | 3547 | 7.7 | -6.1 | -82.1
COc1ccc(NC(=O)c2cc([N+](=O)[O-])ccc2NC(=O)CNCc2ccccn2)c(OC)c1 | 4.5 | -4.2 | 0.5 | 3781 | 6.1 | 9.6 | -17.4
Cc1ccc(-c2ccc(C=NNC(=O)Cc3nnc(N)s3)o2)cc1Cl | -13.3 | -0.3 | 3.0 | / | / | -3.9 | /
O=C(CN1C(=O)c2ccccc2C1=O)Nc1nnc(C2CCCO2)s1 (stereo not given) | 8.8 | 1.9 | 7.7 | 8169 | -7.6 | 14.3 | -8.4
CC(=O)c1ccc(OCC(=O)Nc2ccccc2C(=O)NC2CC2)cc1 | 5.9 | 0.4 | 2.4 | 5490 | 3.8 | 1.0 | -22.2
O=C(Cc1cccc([N+](=O)[O-])c1)Nc1ccc(C(=O)N2CCCCC2)cc1 | 3.3 | 9.0 | 4.7 | 3906 | / | -4.5 | -13.8
O=C(Nc1cccc(C(F)(F)F)c1)C(=O)N1CCCCC1 | -0.8 | 4.6 | 3.2 | 3727 | 2.9 | 0.8 | -14.7
CN(C)S(=O)(=O)c1cccc(NC(=O)COC(=O)COc2ccccc2[N+](=O)[O-])c1 | 4.7 | 6.2 | 5.2 | 3130 | 4.1 | 2.3 | -14.8
O=C(N/N=C/c1cccn1-c1ccc(O)cc1)c1cccc2ccccc12 | / | / | / | 6101 | 4.8 | / | -10.6
CCOc1ccc(NC(=O)N(CC(C)C)CC(C)C)cc1 | 5.7 | 16.2 | 9.9 | 20338* | 5.2 | -2.4 | -9.8
CN1CCN(c2nnc(-c3ccc(Cl)cc3)c3ccccc23)CC1 | -5.6 | -4.4 | -3.7 | 4034 | 9.7 | -7.1 | -12.8
COc1cc(S(=O)(=O)n2cnc(C)c2)ccc1Br | -1.6 | 1.0 | 6.0 | 4625 | 2.4 | 1.0 | 0.1
CCCn1nc([N+](=O)[O-])c(C(C#N)c2nc3ccccc3s2)c(Cl)c1=O (stereo not given) | 14.2 | 4.6 | 29.5 | 7746 | 20.0 | 15.0 | -5.7
CC(C)NC(=S)NN=Cc1ccccc1[N+](=O)[O-] | 2.7 | -0.2 | 2.7 | / | / | 5.4 | /
O=C(CN1CCCCCC1)Nc1cc(C(F)(F)F)ccc1Cl | 1.9 | 8.5 | 3.5 | 4412 | 7.7 | 3.9 | 4.6
COC(=O)C1=NN(c2ccccc2)C2(S1)S/C(=C\c1ccccc1)C(=O)N2c1ccccc1 (stereo not given) | / | / | / | 3215 | 5.7 | / | -23.0
O=C(NCCc1ccccc1F)C(=O)Nc1nccs1 | / | / | 5.4 | 3711 | -22.4 | 9.7 | -21.1
CCCCCCCCC/C(=N\O)c1ccccn1 | / | / | / | 2350 | 6.2 | / | -40.4
O=C(O)CSC(=S)N1CC2CC(C1)c1cccc(=O)n1C2 (stereo not given) | 1.7 | -0.2 | 2.9 | 3262 | 1.3 | -11.1 | -8.9
Cc1ccc2c(c1)N=C(c1ccc(F)cc1)CO2 | / | / | 12.6 | 2016 | / | 22.8 | -40.0
COc1ccccc1Oc1ccc2c(c1)C(=O)N(CC(=O)O)C2=O | 7.4 | -4.9 | -0.8 | 3877 | -6.9 | -1.5 | -10.3
